FGF22 binding: binders of recombinant human FGF22 by thermal shift; Q9HCT0; SYPRO orange fluorescence; percent of sucrose octasulfate shift, DMSO zero; calls only at 9.99 µM; actives 1.5% (n = 340,000); AID 651658;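 active = melting point raised past a set limit in the mean and every replicate; three in four hits are not shown here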
Target sequence (Q9HCT0 whole entry, looked up): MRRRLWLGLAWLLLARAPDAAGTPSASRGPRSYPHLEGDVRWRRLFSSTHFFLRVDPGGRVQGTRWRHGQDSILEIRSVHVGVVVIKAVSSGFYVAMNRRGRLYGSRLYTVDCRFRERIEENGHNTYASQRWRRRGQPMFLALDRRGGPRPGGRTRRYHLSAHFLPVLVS
B2AR ag: human beta-2 adrenergic receptor agonism by FAP. P07550. Am2.2-beta2AR cells, FAP receptor internalization, flow cytometry; reference of the scale not given here. response, % (concentration not given with the values). actives 0.43% (n = 340,000);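 active = response above a set limit, near 3 SD of response in nonfluorescent compounds, cut at about 42% in these data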;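 note: stock transfer was 100 nL into about 11 µL; a reference agonist was the positive control; negative values mostly stem from fluorescent compounds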
Target sequence (P07550 whole entry, looked up): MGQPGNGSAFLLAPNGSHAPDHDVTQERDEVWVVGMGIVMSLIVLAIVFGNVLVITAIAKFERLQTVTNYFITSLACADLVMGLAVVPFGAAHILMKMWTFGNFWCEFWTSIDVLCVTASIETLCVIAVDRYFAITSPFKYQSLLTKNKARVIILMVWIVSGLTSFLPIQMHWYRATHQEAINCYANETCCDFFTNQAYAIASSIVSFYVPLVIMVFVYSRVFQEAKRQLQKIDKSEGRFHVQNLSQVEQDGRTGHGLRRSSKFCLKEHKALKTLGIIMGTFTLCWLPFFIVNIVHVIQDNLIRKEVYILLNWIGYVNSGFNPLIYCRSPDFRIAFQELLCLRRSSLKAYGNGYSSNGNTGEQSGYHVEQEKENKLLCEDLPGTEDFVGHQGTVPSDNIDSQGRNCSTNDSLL
HNF4A DNA FP: change in binding of human HNF4 alpha to DNA | activity change, % at 10 µM | actives 0.3% (n = 360,000) | AID 1224865 | HNF4a-FITC DNA binding, fluorescence polarization, 1 h; in the data active = activity change above about 30%, passing the limit was not always enough;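 note: controls were the assay level and a saturating level of protein; the project sought stronger binding though the title names inhibitors; some compounds called inactive have numbers as strong as hits; positive values seem to mean higher polarization but the record does not say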
Target sequence (P41235 whole entry, looked up): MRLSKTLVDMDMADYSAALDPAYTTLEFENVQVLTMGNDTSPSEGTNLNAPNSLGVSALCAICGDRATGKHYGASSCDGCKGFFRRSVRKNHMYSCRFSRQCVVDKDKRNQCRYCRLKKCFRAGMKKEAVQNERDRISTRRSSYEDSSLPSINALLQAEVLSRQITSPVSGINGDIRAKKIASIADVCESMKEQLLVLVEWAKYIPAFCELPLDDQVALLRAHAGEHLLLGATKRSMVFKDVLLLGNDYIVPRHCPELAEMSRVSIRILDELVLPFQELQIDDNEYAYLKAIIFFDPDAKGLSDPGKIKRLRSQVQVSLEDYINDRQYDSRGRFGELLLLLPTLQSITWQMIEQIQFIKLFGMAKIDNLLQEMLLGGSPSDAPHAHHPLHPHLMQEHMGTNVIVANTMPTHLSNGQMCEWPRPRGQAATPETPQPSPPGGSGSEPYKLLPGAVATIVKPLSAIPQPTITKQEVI
LANA-H2B inh: blocks KSHV LANA binding to histone H2A/H2B | Q9QR71 | cell-free LANA-H2A/H2B peptide, fluorescence polarization | inhibition, % (no concentration beside the values) | actives 0.6% (n = 320,000); in the data active = inhibition mostly above about 10%, no sharp cut-off; inactive = mostly below about 6.7%;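 note: stock transfer was 7.5 nL into about 10 µL; 0% = median of vehicle wells and 100% = median of positive control wells; one replicate is shown; the record names a cut of 25% in any replicate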
ALR inh: blocks human ALR sulfhydryl oxidase activity. P55789. actives 3.8% (n = 290,000). AID 485317. purified ALR, DTT oxidation, H2O2 HRP-luminol luminescence. inhibition, % (no concentration beside the values);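 active = mean and each replicate at 75% or more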;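 note: stock transfer was 7.5 nL into about 7.5 µL; 0% = neutral wells and 100% = wells with inactivated enzyme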
UCH37 DUB inh: inhibitors of human deubiquitinating enzyme UCH37 | Q9Y5K5 | purified proteasome/UCH37, Ub-AMC cleavage fluorescence | inhibition, % (no concentration beside the values) | actives 0.33% (n = 330,000);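 active = mean of two replicates above 20%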;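 note: 0% = compound-free wells with enzyme and 100% = wells lacking proteasome; stock transfer was 100 nL into about 20 µL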
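System: Proteasome-associated human UCH37 deubiquitinase; Input: 0.15 nM proteasome in added enzyme buffer; Also added: Ub-AMC substrate from 1 µM stock; Incubation: 30 min compound-proteasome preincubation then 25 min substrate reaction, room temperature; Detection: fluorescence, ex 355 nm, em 460 nm; Read-out: % inhibition of Ub-AMC cleavage fluorescence; Benchmarks: no-proteasome and no-compound wells.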
Ecoli growth: inhibitors of Escherichia coli growth. OD600, 23 h; stronger effect = lower value. OD600 absorbance (test concentration not listed). actives 0.21% (n = 330,000);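 active = OD600 absorbance below the run mean of sample wells minus 3.6 SD, in any replicate, cut at about 0.56 in these data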;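 note: stock transfer was 300 nL into about 60 µL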
Active calls of the source: *; i = inactive; nt = not tested or not shown; + = active, no number. Not all compounds are listed. The share of hits here may be higher or lower than overall.

molecule	FGF22 binding	B2AR ag	HNF4A DNA FP	LANA-H2B inh	ALR inh	UCH37 DUB inh	Ecoli growth
COc1cccc2cc(C(=O)NCCc3ccccc3)c(=O)oc12	i	-4.5	2.1	-0.1	-1.3	-5.4	0.646
Cc1ccc(N2CC(C(=O)NCc3cccs3)CC2=O)cc1C (centres undefined)	nt	-2.6	-7.7	-3.4	0.7	10.8	0.69
O=C(Nc1nc2c(s1)CCCC2)c1cc(-c2ccccc2)nc2ccccc12	nt	14.1	0.4	1.2	-5.9	4.1	0.695
O=C(Nc1nnc(CCN2CCCCC2)s1)c1ccc(Cl)cc1Cl	i	5.1	-1.1	2.4	nt	4.8	0.623
CCn1c(SCC(=O)c2ccc(CNC(C)=O)o2)nnc1-c1cccs1	nt	-11.7	1.3	-1.4	21.1	5.5	0.685
COc1ccccc1C(=O)Nc1ccc(Nc2ccccc2)cc1	i	-2.4	1.6	0.2	-2.2	6.2	0.653
CC(=O)c1sc(-c2cccc(Cl)c2)nc1C	i	2.7	4.5	-1.3	-24.4	5.3	0.714
Cc1c(Cl)cccc1NC(=S)NNS(=O)(=O)c1ccc([N+](=O)[O-])cc1	i	0.5	1.8	-2.3	34.9	-1.7	0.655
CCOC(=O)c1c(C)[nH]c(C)c1S(=O)(=O)NCCc1ccco1	i	-0.7	-1.0	3.1	1.6	2.5	0.669
COc1ccc(C(=O)NCC2(c3ccccc3)CCOCC2)cc1	i	-7.1	-3.6	-6.7	-0.2	4.8	0.699

molecule	FGF22 binding	B2AR ag	HNF4A DNA FP	LANA-H2B inh	ALR inh	UCH37 DUB inh	Ecoli growth
COC(=O)c1cccc(NC(=O)/C=C/c2ccc([N+](=O)[O-])cc2)c1	i	11.9	-0.9	2.4	0.4	3.5	0.697
C[C@H](NC(=O)[C@H](Cc1ccccc1)n1c(=O)[nH]c2ccccc2c1=O)C(=O)N1CCC[C@H]1C(=O)O	i	-3.4	0.5	3.9	-5.9	2.3	0.699
COc1cc(C(=O)Nc2ccc(C)cc2C(NCC(=O)NN)c2ccccc2)cc(OC)c1OC (centres undefined)	i	-13.0	-2.8	0.9	1.9	1.2	0.666
CC(=O)Oc1ccccc1C(=O)Nc1ccccc1C(=O)N1CCCCC1	i	14.0	-3.8	-8.1	12.1	2.0	0.695
CC(=O)c1ccc(S(=O)(=O)N2CCN(C(=O)c3ccc(N)c([N+](=O)[O-])c3)CC2)cc1	i	1.5	-0.6	1.3	-2.2	6.2	0.659
CCS(=O)(=O)c1ccc(O)c(NC(=O)Nc2ccc(C(C)(C)C)cc2)c1	i	0.4	0.5	0.6	3.9	3.0	0.665
CCOC(=O)c1c(NC(=O)Cc2ccccc2)sc2c1CCN(C)C2	i	5.4	-3.0	-11.1	0.5	6.2	0.773
O=C(NC1CCN(Cc2ccccc2)CC1)C1CCN(S(=O)(=O)c2ccc(Cl)cc2)CC1	i	-6.8	0.6	-4.4	-2.4	2.3	0.65
N#Cc1cc(Oc2ccccc2)c(-n2nnc3ccccc32)cc1C#N	nt	5.4	4.5	26.3*	nt	-0.3	0.705
Cc1cc(C)cc(C(=O)OCC(=O)NCC(F)(F)F)c1	i	-2.7	-1.9	0.2	nt	-2.4	0.724

molecule	FGF22 binding	B2AR ag	HNF4A DNA FP	LANA-H2B inh	ALR inh	UCH37 DUB inh	Ecoli growth
COc1ccc2[nH]c3c(c2c1)CCN1C(=O)C(CC(=O)NCc2cccc(C(F)(F)F)c2)C[C@H](C(=O)N2CCOCC2)[C@@]31C (some centres undefined)	i	-0.9	0.7	nt	nt	2.4	0.675
O=C(Cc1ccc(S(=O)(=O)N2CCCC2)s1)N1CCN(c2ccccc2)CC1	i	0.7	2.1	-9.5	nt	0.6	0.671
COc1ncccc1C(=O)N1CCCC(C(=O)c2cccc(OC(C)C)c2)C1 (centres undefined)	nt	-6.9	195.1	-0.3	-4.3	2.6	0.671
Cc1cccc(NC(=S)N(CCN(C)C)C(C)c2cccnc2)c1 (centres undefined)	i	1.4	-1.4	0.3	-37.0	nt	nt
CC(=O)Nc1ccc(S(=O)(=O)NC(C)C(=O)OCCOc2ccc(F)cc2)cc1 (centres undefined)	i	-0.6	-0.7	1.3	0.5	0.9	0.694
Cn1c(Cc2ccccc2)nnc1SCC(=O)c1ccc(Br)s1	nt	0.8	9.7	-1.0	83.4*	4.2	0.684
Cc1ccc(SCc2ccc(C(=O)Nc3nccs3)o2)cc1	i	-1.5	1.8	0.2	-0.3	-0.5	0.714
COc1ccc(Cl)cc1NC(=O)CN(C)C(=O)c1ccc2n[nH]nc2c1	i	-1.7	1.2	1.4	2.1	0.8	0.65
CCCCn1c(SCc2ccc(C(=O)OC)o2)nc2cc(S(N)(=O)=O)ccc21	nt	11.7	-0.1	3.1	-3.5	-0.9	0.704
CC(C)=CCc1c2c(c3occ(-c4ccc(O)cc4)c(=O)c3c1O)C=CC(C)(C)O2	i	7.8	3.4	3.3	12.2	7.2	0.798

molecule	FGF22 binding	B2AR ag	HNF4A DNA FP	LANA-H2B inh	ALR inh	UCH37 DUB inh	Ecoli growth
COc1ccccc1-c1cn[nH]c1-c1ccc(OCc2ccccc2F)cc1O	i	20.4	-5.8	1.7	-1.6	4.0	0.698
COc1ccc(/C=C2/SC(=O)N(NS(=O)(=O)c3ccccc3)C2=S)cc1OC	i	5.5	3.2	-4.2	-6.7	11.4	0.755
Cc1cc(S(=O)(=O)Nc2ccccc2C)ccc1F	nt	-4.7	1.8	-2.4	3.8	1.5	0.672
Cc1cc(C)nc(/N=C(\N)Nc2ccc3c(c2)OCCO3)n1	nt	-10.8	-1.5	1.9	-2.6	nt	nt
CC(=O)c1ccc(N2CCN(S(=O)(=O)c3c(C)[nH]c(=O)[nH]c3=O)CC2)cc1	i	6.0	3.0	-6.1	-4.0	3.6	0.693
Cc1ccc2c(CC(=O)O)coc2c1	nt	31.8	-1.2	-3.4	-4.1	2.9	0.749
CCc1cnccc1CCC(=O)Nc1ccccc1C	i	2.3	-0.9	-0.2	-6.7	0.1	0.64
CCCC(c1nnnn1Cc1ccco1)N1CCN(C2CCCC2)CC1 (centres undefined)	nt	1.9	0.7	1.5	1.5	-6.1	0.677
Cc1ccc2[nH]c(=O)c(CN(CCCN3CCOCC3)Cc3nnnn3C3CCCC3)cc2c1	i	-4.3	2.0	1.0	-0.8	2.2	0.702
O=C(NCc1ccccn1)c1ccc(CNS(=O)(=O)c2cccc(C(F)(F)F)c2)cc1	i	-14.5	0.0	-0.6	-1.8	4.8	0.696

4 of the compounds above, as labelled records.
COc1ccc(/C=C2/SC(=O)N(NS(=O)(=O)c3ccccc3)C2=S)cc1OC
  FGF22 binding: i | B2AR ag: 5.5 | HNF4A DNA FP: 3.2 | LANA-H2B inh: -4.2 | ALR inh: -6.7 | UCH37 DUB inh: 11.4 | Ecoli growth: 0.755

Cc1cc(S(=O)(=O)Nc2ccccc2C)ccc1F
  FGF22 binding: nt | B2AR ag: -4.7 | HNF4A DNA FP: 1.8 | LANA-H2B inh: -2.4 | ALR inh: 3.8 | UCH37 DUB inh: 1.5 | Ecoli growth: 0.672

Cc1cc(C)nc(/N=C(\N)Nc2ccc3c(c2)OCCO3)n1
  FGF22 binding: nt | B2AR ag: -10.8 | HNF4A DNA FP: -1.5 | LANA-H2B inh: 1.9 | ALR inh: -2.6 | UCH37 DUB inh: nt | Ecoli growth: nt

CC(=O)c1ccc(N2CCN(S(=O)(=O)c3c(C)[nH]c(=O)[nH]c3=O)CC2)cc1
  FGF22 binding: i | B2AR ag: 6.0 | HNF4A DNA FP: 3.0 | LANA-H2B inh: -6.1 | ALR inh: -4.0 | UCH37 DUB inh: 3.6 | Ecoli growth: 0.693

Going on with the list:
molecule	FGF22 binding	B2AR ag	HNF4A DNA FP	LANA-H2B inh	ALR inh	UCH37 DUB inh	Ecoli growth
Cc1ccc(S(=O)(=O)N2CCOCC2)cc1-c1n[nH]c(=S)n1-c1ccccc1	i	-1.9	-5.0	-1.6	nt	3.5	0.67
O=C(Nc1ccc(F)cc1F)c1ccc(-n2cncn2)nc1	nt	1.9	0.0	3.0	nt	1.4	0.709
CN(C)CCCNC(=O)C1(O)c2cc(Br)ccc2NC(=O)N1c1ccc(Cl)cc1 (centres undefined)	i	-1.0	0.8	3.7	-6.0	-1.0	0.652
CCOC(=O)COc1ccc(S(=O)(=O)c2ccc(OCC(=O)OCC)cc2)cc1	i	11.0	4.8	-0.5	0.7	-0.4	0.654
CNc1nc2ccccc2n1CC(=O)c1ccccc1	i	-1.9	1.1	-5.6	41.4	3.5	0.616
COc1ccc(OCC(O)Cn2c(=N)n(CCN3CCCCC3)c3ccccc32)cc1 (centres undefined)	nt	8.8	-2.4	3.2	-7.0	2.1	0.713
CCOC(=O)c1[nH]c(C)c(/C(O)=C2\C(=O)C(=O)N(CCN(C)C)C2c2ccco2)c1C (centres undefined)	nt	-3.6	4.5	-2.6	-18.3	5.6	nt
Cc1ccc(-n2nnnc2SCC(=O)NC(=O)Nc2ccc3c(c2)OCCO3)cc1	i	-8.2	3.0	3.6	-7.4	0.6	0.678
COc1ccc(NC(=O)CCNS(=O)(=O)c2ccc(Cl)c([N+](=O)[O-])c2)cc1S(N)(=O)=O	i	10.1	-1.7	1.8	-5.7	0.4	0.679
O=C(CN1C(=O)S/C(=C\c2ccccc2F)C1=O)NC1CCS(=O)(=O)C1 (centres undefined)	i	-0.9	3.7	-0.3	-8.2	6.1	0.61

molecule	FGF22 binding	B2AR ag	HNF4A DNA FP	LANA-H2B inh	ALR inh	UCH37 DUB inh	Ecoli growth
CCOC(=O)c1oc2ccc(CNC(C)(C)C)c(Cl)c2c1C	i	0.6	5.2	-2.9	-4.7	4.5	0.701
O=C1CCC(C(=O)N2CCSCC2)CN1Cc1ccc(Cl)cc1 (centres undefined)	i	1.0	-1.0	11.0	-5.3	2.4	0.697
COc1ccc(-c2cc(=O)c3cc(OC)c(OC)cc3[nH]2)cc1	i	3.3	-2.4	2.4	-6.1	-24.6	0.624
CC(=O)c1ccccc1NC(=O)COC(=O)CCCN1C(=O)c2cccc3cccc(c23)C1=O	nt	8.7	0.4	-4.4	6.5	-28.0	0.708
CN(c1ccc(OCC(=O)NC2CCCC2)cc1)S(=O)(=O)c1cccs1	nt	-7.1	-0.5	7.8	-1.9	2.3	0.68
CCOC(=O)c1ccc(-n2c(CN3CCN(CC)CC3)nc3ccc([N+](=O)[O-])cc3c2=O)cc1	i	-11.8	-0.2	-1.1	nt	6.9	0.714
O=C(/C=C/c1cccc([N+](=O)[O-])c1)N1CC[C@@]2(O)CCCC[C@H]2C1	i	-1.1	1.5	3.6	-8.8	-0.1	0.679
Cc1cc(Br)c(NC(=O)CN(C)CCOc2ccccc2)c(Br)c1	i	0.7	-0.8	-1.9	-25.2	nt	nt
Cc1noc(C)c1S(=O)(=O)N1CCCC(C(=O)Nc2ccc(Cl)cn2)C1 (centres undefined)	nt	3.2	2.1	-3.5	-5.6	2.9	0.738
Cn1c(O)c(/C=C2\C=Nc3ccccc32)sc1=Nc1ccc(C(=O)O)cc1	i	0.0	-4.5	2.7	3.7	8.3	0.72
COc1ccc(-n2cnc3cc(C(=O)NCC4CCCO4)ccc32)cc1 (centres undefined)	i	-3.2	-0.5	-8.0	-10.2	2.8	0.695
O=C(NN1C(=O)CSC1=S)C(=O)NN1C(=O)CSC1=S	+	-0.2	-12.6	-0.9	42.1	3.6	0.661

Compound activity deposited in PubChem BioAssay by several laboratories.
